Mtb hypoxia rep: inhibitors of hypoxia-regulated fluorescent reporter in Mycobacterium tuberculosis | M. tuberculosis hypoxia-regulated fluorescent reporter, fluorescence | fluorescence inhibition, % (concentration not given with the values) | 300,000 tested, 0.1% active | AID 1159583;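 active means 35 to 45% if threefold the growth effect, above 45% if 1.5-fold the growth effect; inactive means the rest, general growth blockers included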;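 further: wells of about 50 µL received 100 nL stock; 0% = vehicle wells and 100% = reference inhibitor wells; whole bacteria with a GFP reporter of the hypoxia response; strong numbers were not always called active; many hits fall short of the cut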
ugtP null kill: growth inhibition of S. aureus ugtP deletion strain; S. aureus RN4220 ugtP deletion, OD600 growth, 16 h; some inactives read as strong as hits; growth inhibition, % (no concentration beside the values); 330,000 tested, 0.54% active;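 active means z-score under -3 and OD600 up to 0.15 on both plates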;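 further: plate controls were untreated wells for no effect and antibiotic for full effect; wells of about 80 µL received 100 nL stock; the first replicate is given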
Autofluor counter: flagged as autofluorescent in microsphere protease counterscreen | 360,000 tested, 3.1% active | fluorescence intensity (concentration not given with the values) | AID 624483 | compound autofluorescence counterscreen, microsphere flow cytometry; stronger effect = higher value;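 active means at least 3 SD above the mean of all compounds, about 16000 in these data; inconclusive means too few beads counted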;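 further: 100 nL of 1 mM stock went into each well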
RN4220 kill: kills Staphylococcus aureus RN4220. S. aureus RN4220 growth, OD600, 16 h. inhibition, % (no concentration beside the values). 330,000 tested, 0.33% active. AID 1259311;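 active means z-score of -3 or lower and OD600 up to 0.18 on both plates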;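 further: plate controls were untreated cells for no effect and reference antibiotic for full effect; stock transfer was 100 nL into about 80 µL; one replicate is shown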
BJeLR viability: BJeLR cell viability loss; BJeLR (HRASV12) viability, CellTiter-Glo ATP luminescence, 48 h; reference of the scale not given here; inhibition, % (concentration not given with the values); 300,000 tested, 0.17% active;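 active means replicate mean above 50%; inconclusive means above 50% but judged a plate artefact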;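 further: 50 nL library stock added to about 25 µL; numbers are from one replicate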
PrP 5UTR inh: inhibition of PrP 5' UTR reporter expression; cell-based PrP 5' UTR mRNA reporter, plate reader; inhibition, % (concentration not given with the values); 340,000 tested, 0.35% active; AID 488862;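 active means every replicate at 50% or more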;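 further: 0 = median of the neutral control wells; tested in H4 reporter cells; numbers are from one replicate; inactives centre near -14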
Mtb hypoxia rep growth: recorded beside Mtb hypoxia rep, whose call it bears; growth inhibition, %; measured here: M. tuberculosis growth (absorbance);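 0% = vehicle and 100% = reference antibiotic; read after six days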
* = called active by the depositor; ? = inconclusive; . = no result given; & = joins results of further samples.

SMILES | Mtb hypoxia rep | Mtb hypoxia rep growth | ugtP null kill | Autofluor counter | RN4220 kill | BJeLR viability | PrP 5UTR inh
COc1ccc(NC(=O)C2CCCN(C(=O)Nc3ccc(OC)cc3)C2)cc1 (centres undefined) | 1.7 | -1.3 | 6.7 | 3588 | 1.9 | -0.2 | -28.9
Cc1nn(-c2ccccc2)c(C)c1C(=O)OCC(O)=C(C#N)c1nc2ccccc2[nH]1 | 10.7&6.1 | 2.4&15.6 | -2.0&-7.9 | 4771 | 1.7&0.8 | . | -9.5
COc1ccc(NC(=O)N2CCN(S(C)(=O)=O)CC2)cc1OC | -2.2 | -1.3 | -1.3 | 22966* | -1.5 | 2.8 | -13.2
CC[C@@]1(C(=O)OC)N[C@H](CN(C)C(=O)NC(C)C)[C@@H]2C(=O)N(Cc3ccccc3)C(=O)[C@@H]21 | 2.9 | -3.1 | 1.7 | 3547 | -1.7 | . | -10.4
COc1ccc(CCC(=O)NNC(=O)Nc2ccc(OC)c(OC)c2)cc1 | -2.7 | -2.9 | -4.3 | 5346 | 6.2 | -5.7 | 1.1
Cn1nc(-c2ccc(OCC(=O)NCC3CCCO3)cc2)c2ccccc2c1=O (centres undefined) | . | . | -5.9 | 3257 | -11.7 | 8.3 | -13.8
C=CCNC(=O)C(=Cc1ccc(OC)cc1)NC(=O)c1ccc([N+](=O)[O-])cc1 | -5.7 | -11.3 | -1.3 | . | 13.1 | . | .
CC(O)Cc1cn(CC(=O)NCCCCCCCCCCC(=O)N2CCNCC2)nn1 (centres undefined) | 4.4 | 10.3 | 2.7 | . | 5.6 | . | .
O=C(NN=Cc1sc2ccccc2c1O)c1ccccc1 | 2.0 | -0.8 | 34.5 | . | 38.9 | . | .
CCOC(=O)C=CC1CCc2cccc(C)c2O1 (centres undefined) | 21.0 | 12.3 | 5.8 | . | 9.3 | . | .
COCCNC(=O)c1cc(C(=O)CC(C)C)c[nH]1 | 1.0 | 5.9 | 4.6 | 3148 | 1.0 | -10.6 | 47.2
Cc1nc(SCC(=O)NCc2ccccc2)c2oc3ccccc3c2n1 | 11.2 | 4.8 | -3.5 | ? | 19.9 | 0.0 | -21.0
Cc1ccc(Cn2nnc3c(=O)n(Cc4ccccc4C)cnc32)cc1 | -1.6 | 6.1 | 17.0 | 5668 | 23.9 | -9.1 | -25.0
CC1=NOC2(C1)N(C)c1ccccc1C2(C)C (centres undefined) | 6.1 | 5.5 | 9.9 | 10777 | 4.8 | 5.7 | .
O=C(NCc1ccccn1)c1ccc(Cn2cc(Br)cn2)o1 | -0.2 | -0.1 | 3.1 | 10363 | 4.2 | -3.7 | -17.1
COc1nc(N)nc(NC(=O)c2cccs2)c1N=O | -0.8 | -1.0 | 8.8 | 5518 | 4.7 | -4.7 | -26.4
CCC1CCCCN1CCCNC(=O)c1ccc(N2CCCC2=O)cc1 (centres undefined) | 2.7 | -0.4 | 4.6 | 6280 | 4.2 | 2.9 | -21.5
CC1CC(C)CN(C(=O)COC(=O)c2ccc(S(=O)(=O)N(C)c3ccccc3)cc2)C1 (centres undefined) | 1.9 | 6.7 | -17.5 | . | -5.1 | . | -6.5
CCN(CC)CCN1C(=O)C(O)=C(C(=O)c2cc3cccc(OC)c3o2)C1c1ccc(F)cc1 (centres undefined) | -3.7 | -13.4 | -5.7 | 4144 | -3.1 | 1.7 | -18.3
O=C(NCc1ccco1)C1CCN(C(=O)c2ccc([N+](=O)[O-])cc2)CC1 | 9.2 | -6.5 | 1.6 | 4681 | 0.0 | -3.9 | -9.0
COC(=O)C1=C(c2ccc(C(C)=O)cc2)CC2CCC1N2C(=O)NCCO (centres undefined) | 3.1 | 4.0 | -2.0 | . | 4.4 | . | .
Cc1cc(-c2nn(C)c(=O)c3ccccc23)ccc1CNC(=O)NC1CCCCC1 | 7.7 | 1.0 | 3.1 | 4025 | 3.6 | 5.5 | -29.2
Cc1ccccc1-n1nc2c(c1NC(=O)c1c(-c3ccccc3Cl)noc1C)CSC2 | 0.2 | -2.5 | 12.7 | 8696 | 17.1 | . | -23.1
Cc1ccc(S(=O)(=O)NCCC(c2ccccc2)c2ccco2)cc1 (centres undefined) | -1.0 | -4.8 | 1.8 | 1950 | 2.7 | -1.7 | -16.8
CCCNC(=S)N1CC2(C)CN(C(=O)C(=O)OCC)CC(C)(C1)C2=O | 12.4 | -2.8 | 1.6 | 2666 | 4.7 | -0.7 | -27.0
COc1ccc(OCc2cc(C(=O)N(C)Cc3nnc(C)o3)no2)c(Cl)c1 | 15.0 | 9.4 | 6.1 | 5439 | 1.7 | -2.9 | -57.5
C=CCOc1cccc(C(=O)NC(c2ccccc2)C(C)C)c1 (centres undefined) | 13.6 | 7.1 | 4.7 | 3341 | -10.2 | 0.3 | -12.8
COc1ccc(-c2oc3ccc(-c4ccc5c(c4)OCO5)cc3c2-c2ccc(OC)nc2)cc1 | -0.4 | 2.8 | 11.7 | 3078 | -13.5 | -1.8 | -17.3
Cc1ccc(-n2nc(-c3ccco3)cc2C(=O)NCc2cccnc2)cc1 | . | . | -4.3 | 3015 | -0.1 | 2.7 | -5.1
Clc1ccc(CNc2ccccn2)cc1 | -5.0 | -5.4 | 6.2 | 3715 | 5.7 | 3.7 | -55.9
O=C(CSc1nnc(CNC(=O)c2c(F)cccc2F)o1)NCc1ccccc1 | 3.9 | 1.9 | 1.8 | 4976 | 0.3 | 9.5 | 2.3
CCC(C)(C)n1nnnc1C(c1ccc(OC)c(OC)c1)N1CCN(c2cccc(OC)c2)CC1 (centres undefined) | . | . | 8.4 | 3664 | -1.6 | 0.6 | -25.1
COC(=O)CSc1ccc(C#N)c(SCC(=O)OC)c1 | -2.1 | -1.4 | -3.9 | 3394 | 6.1 | 7.3 | -0.2
Cc1nn(-c2ccccc2)c(C)c1C(=O)OCC(=O)N1CCN(S(=O)(=O)c2ccccc2)CC1 | -2.4 | 2.5 | -1.0 | 21834* | 4.3 | 7.8 | -12.6
CCOC(=O)c1ccccc1NC(=O)Cn1c(=O)n(Cc2ccccc2)c(=O)c2c(C)c(C)sc21 | -0.2 | -2.6 | 10.0 | 2267 | -5.9 | -1.0 | -15.2
O=C(c1ccccc1)c1n[nH]c(-c2ccccc2)cc1=O | 8.2 | 5.4 | 2.8 | 5241 | 1.3 | -1.0 | -29.9
CCCC(=O)Nc1nnc(Cc2ccccc2)s1 | 5.6 | -5.5 | 1.8 | 24700* | 4.5 | . | -6.1
COc1ccc(NC(=O)CSc2nnc(Cc3cccn3C)n2CCc2ccccc2)c(OC)c1 | 3.4 | 5.6 | -2.4 | 7844 | 4.1 | -3.1 | -6.7
Cc1ccc(OCC(=O)Nc2ccc(Cl)cc2C(=O)c2ccccc2)cc1 | 9.1 | -0.3 | 9.5 | 2308 | 2.7 | -0.1 | -16.8
O=C(NCc1ccccc1F)C1CCCN(S(=O)(=O)c2ccc(-n3cnnn3)cc2)C1 (centres undefined) | -1.6 | -2.3 | 1.7 | 2924 | -4.0 | -2.4 | -23.2
COc1ccc2c(c1)C(=O)/C(=C/C=C/c1ccccc1)CC2 | 1.3 | 3.4 | 29.1 | 3698 | 12.1 | -1.5 | -42.8
O=C1C2C3C=CC(C2C(=O)N1c1ccccc1O)C1C2C(=O)N(c4ccccc4O)C(=O)C2C31 (centres undefined) | 3.4 | 3.4 | 7.9 | 4528 | -2.1 | 2.2 | -20.4
CN1C(=O)C2C=CC1C1C(=O)N(c3ccccc3)C(=O)C21 (centres undefined) | -2.2 | 7.6 | -7.7 | 21330* | 3.0 | -8.2 | -101.5
Cc1cc(C(C)(C)C)cc(C)c1Cn1c2[n+](c3ccc(C(F)(F)F)cc31)CCCCC2 | . | . | 100.3* | 5229 | 100.6* | 6.1 | -5.6
COc1ccc(-n2c(=O)[nH]c3cc(C(=O)NCCc4ccc(OC)c(OC)c4)ccc3c2=O)c(OC)c1 | -0.7 | 10.4 | 4.7 | 3794 | 0.4 | 5.4 | -28.5
N#Cc1cnc2sc3ccccc3n2c1=N | 13.3 | 4.2 | -5.0 | 9374 | 4.3 | -2.0 | -42.4
Cc1cc(C)cc(NC(=O)CSc2nnc(CNC(=O)c3ccco3)o2)c1 | . | . | . | 4371 | . | -4.5 | -21.4
COc1ccc(C(CNC(=O)c2ccc(S(=O)(=O)N(C)C)cc2)N2CCCC2)cc1 (centres undefined) | -3.7 | 11.2 | 2.0 | 14855 | 5.2 | 1.7 | -31.4
COCCn1c(SCC(=O)Nc2cccc(F)c2)nc2c([nH]c3ccccc32)c1=O | 8.6 | -9.7 | -5.4 | 12998 | 4.2 | -5.4 | 0.2
COC(=O)C(N)Cc1ccc(O)cc1 (centres undefined) | -1.9&-10.8 | 1.7&4.5 | 1.4&-0.4 | 4157 | 5.8&-1.9 | 15.6 | -0.5
CCOC(=O)c1[nH]c(CSc2nnc(-c3ccncc3)n2CCOC)c(C(=O)OCC)c1C | 11.8 | 4.2 | 7.3 | 3662 | 2.2 | 10.6 | -5.0
CC(=O)c1ccc(S(=O)(=O)N2CCN(c3nc(-c4cccnc4)nc4ccccc34)CC2)cc1 | 6.1 | -3.6 | -5.4 | 5096 | 0.4 | . | -12.7
CCn1nnc2cc(C(=O)NCCc3ccccc3F)ccc21 | 3.5 | 2.6 | 2.5 | 3077 | 4.3 | -13.3 | 28.4
COc1ccc(N2CC(C(=O)N[C@@H](C)C(=O)NC(C)c3ccccc3)CC2=O)cc1 (some centres undefined) | -0.7 | 3.9 | -3.9 | 5638 | -1.1 | 1.2 | -3.2
CCCCC(=O)N(CCC)CCC | 6.5 | 1.6 | 1.2 | 3990 | 0.5 | -0.6 | -9.7
CN(C)c1ccc(/C=C2\CCCc3c2nc2ccccc2c3C(=O)O)cc1 | 12.2 | 6.7 | 3.7 | 2958 | 8.2 | 2.8 | -25.5
O=C(Nc1ccccc1OC(F)F)C1CC(=O)N(Cc2ccccc2)C1 (centres undefined) | -3.0 | -1.0 | 1.1 | 6161 | 0.8 | -5.2 | -8.7
N/C(Cn1cncn1)=N\NC(=O)C(=O)Nc1ccccc1 | . | . | . | 3499 | . | 3.4 | -1.2
CCS(=O)c1scc(-c2ccc(Cl)cc2)c1C#N (centres undefined) | 11.6 | 5.4 | 7.3 | 4669 | 2.3 | 2.0 | -22.6
C=CCN(c1ccccc1OC)S(=O)(=O)c1cccc(C(=O)NCC(c2ccc(OC)cc2)N2CCCC2)c1 (centres undefined) | 5.0 | 6.7 | 6.8 | 23106* | -0.6 | . | -10.4

Overlap with the part before: 6 entries, followed by the next part.
SMILES | Mtb hypoxia rep | Mtb hypoxia rep growth | ugtP null kill | Autofluor counter | RN4220 kill | BJeLR viability | PrP 5UTR inh
CCCCC(=O)N(CCC)CCC | 6.5 | 1.6 | 1.2 | 3990 | 0.5 | -0.6 | -9.7
CN(C)c1ccc(/C=C2\CCCc3c2nc2ccccc2c3C(=O)O)cc1 | 12.2 | 6.7 | 3.7 | 2958 | 8.2 | 2.8 | -25.5
O=C(Nc1ccccc1OC(F)F)C1CC(=O)N(Cc2ccccc2)C1 (centres undefined) | -3.0 | -1.0 | 1.1 | 6161 | 0.8 | -5.2 | -8.7
N/C(Cn1cncn1)=N\NC(=O)C(=O)Nc1ccccc1 | . | . | . | 3499 | . | 3.4 | -1.2
CCS(=O)c1scc(-c2ccc(Cl)cc2)c1C#N (centres undefined) | 11.6 | 5.4 | 7.3 | 4669 | 2.3 | 2.0 | -22.6
C=CCN(c1ccccc1OC)S(=O)(=O)c1cccc(C(=O)NCC(c2ccc(OC)cc2)N2CCCC2)c1 (centres undefined) | 5.0 | 6.7 | 6.8 | 23106* | -0.6 | . | -10.4
Cc1ccc(S(=O)(=O)NC(CC(=O)O)c2ccccc2)cc1 (centres undefined) | -4.0 | 5.7 | -1.7 | 6160 | 2.8 | -6.0 | -4.3
CCN(CC(=O)N1CCCC1)S(=O)(=O)c1ccccc1 | -5.3 | 1.5 | 10.9 | 3770 | 3.1 | -2.2 | -27.7
Cc1cc(C)n2nc(C(=O)NN=Cc3ccccc3C)nc2n1 | -3.7 | -1.7 | -2.2 | . | 3.1 | . | .
CC(C)c1c(C(=O)NN=C/C=C/c2ccccc2)nnn1-c1nonc1N | 1.2 | 4.4 | 6.0 | . | 6.5 | . | .

Assay outcomes deposited in PubChem by several laboratories.
